Vaccinia stage: blocks a specific stage of Vaccinia orthopoxvirus infection; activity change (mCherry), % (no concentration beside the values); 89,000 compounds, 0.01% hits; Vaccinia-infected cells, mCherry/Venus stage reporter fluorescence; active compounds read low; some inactives read as strong as hits;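 active = mCherry past -33% and 40 or more points under the early reporter, replicates agreeing; inconclusive = past -33% without that gap or agreement; tested in A549 cells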;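 also: scaled between vehicle wells and reference inhibitor wells; 23 nL library stock went into each well; one replicate is shown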
Vaccinia stage Venus: recorded beside Vaccinia stage, whose call it bears; activity change (Venus), %; measured here: Venus reporter, other viral stage;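 negative = less Venus signal; first of two replicates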
An asterisk follows results filed as active; ? = inconclusive; nt = no result given. The list is partial. The share of hits here may be higher or lower than overall.

SMILES	Vaccinia stage	Vaccinia stage Venus
CO[C@@H]1CN(C)C(=O)c2ccc(NC(=O)c3ccccc3F)cc2OC[C@H](C)NC[C@H]1C	-1.2	3.3
C[C@H]1CN([C@@H](C)CO)C(=O)c2cc(NS(=O)(=O)c3ccc(F)cc3)ccc2O[C@@H]1CN(C)Cc1ccc(C(F)(F)F)cc1	-0.9	8.3
O=C(N[C@H]1CC[C@H](CCNS(=O)(=O)c2ccc(F)cc2)O[C@@H]1CO)c1cccc(F)c1	4.1	6.3
C[C@@H]1CN([C@H](C)CO)C(=O)c2cc(NS(C)(=O)=O)ccc2O[C@@H](C)CCCCO[C@@H]1CN(C)Cc1ccc(Cl)c(Cl)c1	?	nt
CC(=O)N(C)C[C@H]1Oc2cc(-c3ccc(C)cc3)ccc2S(=O)(=O)N([C@H](C)CO)C[C@H]1C	-5.8	-12.4
C[C@@H]1CN([C@H](C)CO)C(=O)c2cc(C#Cc3ccccc3)cnc2O[C@@H]1CN(C)C(=O)CN(C)C	8.4	0.2
O=C(Cc1ccccc1)N1CC[C@@H]2[C@H](CO)Nc3ccc(-c4ccccc4)cc3[C@@H]21	-28.1	-13.0
C/C=C/c1ccc2c(c1)O[C@@H](CN(C)C(C)=O)[C@@H](C)CN([C@@H](C)CO)S2(=O)=O	14.5	9.0
O=C(C1CCCC1)N1CC2(C1)[C@H](c1ccccc1)[C@H](CO)N2CC1CC1	1.3	2.1
O=C(N[C@H]1C=C[C@H](CC(=O)N2CCN(c3ccccc3)CC2)O[C@@H]1CO)c1ccncc1	-2.3	-3.3
C[C@@H]1CCCCO[C@H](CN(C)C(=O)Nc2ccc3c(c2)OCO3)[C@@H](C)CN([C@H](C)CO)C(=O)c2cc(NC(=O)Nc3ccccc3)ccc2O1	-0.3	0.3
O=C(NCC[C@@H]1CC[C@@H](NS(=O)(=O)c2cccc(F)c2)[C@H](CO)O1)C1CCOCC1	1.8	-2.1
C[C@@H]1CCCCO[C@H](CN(C)S(=O)(=O)c2cn(C)cn2)[C@H](C)CN([C@@H](C)CO)C(=O)c2cc(NC(=O)Nc3cccc4ccccc34)ccc2O1	29.3	17.2
O=C(C[C@H]1C=C[C@@H](NC(=O)c2cccc(F)c2)[C@H](CO)O1)NCc1ccccc1	-2.8	6.1
C[C@H](O)C#Cc1ccc([C@H]2[C@@H](CO)N3CCCCN(CC4CCOCC4)C[C@@H]23)cc1	16.6	0.0
CCN1CC(=O)N2[C@H](CO)[C@H](c3ccc(Br)cc3)[C@@H]2C1	9.8	3.7
O=C(C[C@@H]1C=C[C@@H](NC(=O)CN2CCOCC2)[C@H](CO)O1)NC1CCCCC1	-1.0	-5.7
O=C(c1ccccc1)N1CC2(C1)[C@@H](c1ccccc1)[C@@H](CO)N2Cc1cc(F)ccc1F	-12.8	-4.0
O=C(C[C@@H]1CC[C@H]2NC[C@H](O)COC[C@@H]2O1)NCc1ccc(Oc2ccccc2)cc1	18.8	7.2
CN1C(=O)c2cc(NC(=O)Cc3cccs3)ccc2OC[C@H]2O[C@H](CC(=O)NCc3ccc(-c4ccccc4)cc3)CC[C@@H]21	-14.2	-1.9
O=C(C[C@H]1C[C@H]2c3cc(NC(=O)Cc4ccncc4)ccc3O[C@H]2[C@H](CO)O1)NCc1cccnc1	4.9	-1.1
O=C(C[C@H]1CC[C@@H]2[C@H](COC[C@H](O)CN2C(=O)c2ccc(F)cc2)O1)NCc1cccc(F)c1	5.0	5.1
COc1ccccc1-c1ccc2c(c1)[C@@H]1[C@@H](CCN1S(=O)(=O)c1cccc(C)c1)[C@H](CO)N2	-23.3	-21.0
Cc1ccc(S(=O)(=O)Nc2ccc3c(c2)C(=O)N([C@@H](C)CO)C[C@@H](C)[C@@H](CN(C)C(=O)C2CCCCC2)OCCCC[C@H](C)O3)cc1	?	nt
CCCNC(=O)[C@H]1[C@H](CO)[C@H]2Cn3c(cccc3=O)[C@@H]1N2C(=O)NCCC	7.8	3.8
C[C@H]1CN([C@@H](C)CO)C(=O)c2cc(NC(=O)c3ccncc3)ccc2O[C@@H]1CN(C)Cc1ccc(Cl)c(Cl)c1	1.9	4.8
CCCNC(=O)N1CC(=O)N2[C@@H](CO)[C@H](c3ccc(-c4cccc(C)c4)cc3)[C@@H]2C1	17.2	-10.8
C[C@H]1CN([C@@H](C)CO)C(=O)c2cccc(NC(=O)Nc3ccc4c(c3)OCO4)c2O[C@@H]1CN(C)S(=O)(=O)c1ccccc1	-25.9	-12.2
O=C(NCC(F)(F)F)[C@@H]1[C@@H](CO)[C@@H]2Cn3c(cccc3=O)[C@H]1N2C(=O)C1CCCC1	8.0	6.6
Cc1ccccc1S(=O)(=O)N1CC(=O)N2[C@H](CO)[C@@H](c3ccc(C#CC4CC4)cc3)[C@H]2C1	-5.5	-17.1
C[C@@H]1CN([C@H](C)CO)S(=O)(=O)c2ccc(C#CCN(C)C)cc2O[C@@H]1CN(C)C(=O)CC1CC1	5.3	10.2
Cc1ccccc1-c1ccc2c(c1)O[C@H](CN(C)Cc1ccncc1)[C@@H](C)CN([C@@H](C)CO)S2(=O)=O	?	nt
Cc1noc(C)c1S(=O)(=O)N(C)C[C@H]1Oc2ccc(NC(=O)C3CCCCC3)cc2CC(=O)N([C@H](C)CO)C[C@H]1C	3.9	4.4
O=C(C[C@@H]1C[C@@H]2c3cc(NS(=O)(=O)c4ccccc4)ccc3O[C@@H]2[C@@H](CO)O1)N1CCOCC1	7.3	11.6
CC(C)NC(=O)N(C)C[C@@H]1Oc2c(NC(=O)C3CC3)cccc2C(=O)N([C@@H](C)CO)C[C@H]1C	20.9	11.7
CO[C@@H]1CN(C)C(=O)c2cc(NC(=O)C3CC3)ccc2OC[C@H](C)N(C(=O)CN(C)C)C[C@H]1C	-2.5	-3.2
COc1ccc(NC(=O)Nc2ccc3c(c2)CC(=O)N([C@H](C)CO)C[C@@H](C)[C@H](CN(C)S(=O)(=O)c2ccc(F)cc2)O3)cc1	5.6	4.9
COc1ccc(CN(C)C[C@@H]2Oc3ccc(NS(=O)(=O)c4ccc(OC)cc4)cc3C(=O)N([C@H](C)CO)C[C@H]2C)cc1	-18.1	-11.5
C[C@H](CO)N1C[C@H](C)[C@H](CN(C)Cc2ccc(C(=O)O)cc2)Oc2c(NS(=O)(=O)c3ccc(Cl)cc3)cccc2C1=O	17.0	16.3
CC(=O)N(C)C[C@H]1Oc2ncc(C3=CCCC3)cc2C(=O)N([C@@H](C)CO)C[C@@H]1C	10.9	5.7

Among those listed so far, 9 have fluorine:
SMILES	Vaccinia stage	Vaccinia stage Venus
CO[C@@H]1CN(C)C(=O)c2ccc(NC(=O)c3ccccc3F)cc2OC[C@H](C)NC[C@H]1C	-1.2	3.3
C[C@H]1CN([C@@H](C)CO)C(=O)c2cc(NS(=O)(=O)c3ccc(F)cc3)ccc2O[C@@H]1CN(C)Cc1ccc(C(F)(F)F)cc1	-0.9	8.3
O=C(N[C@H]1CC[C@H](CCNS(=O)(=O)c2ccc(F)cc2)O[C@@H]1CO)c1cccc(F)c1	4.1	6.3
O=C(NCC[C@@H]1CC[C@@H](NS(=O)(=O)c2cccc(F)c2)[C@H](CO)O1)C1CCOCC1	1.8	-2.1
O=C(C[C@H]1C=C[C@@H](NC(=O)c2cccc(F)c2)[C@H](CO)O1)NCc1ccccc1	-2.8	6.1
O=C(c1ccccc1)N1CC2(C1)[C@@H](c1ccccc1)[C@@H](CO)N2Cc1cc(F)ccc1F	-12.8	-4.0
O=C(C[C@H]1CC[C@@H]2[C@H](COC[C@H](O)CN2C(=O)c2ccc(F)cc2)O1)NCc1cccc(F)c1	5.0	5.1
O=C(NCC(F)(F)F)[C@@H]1[C@@H](CO)[C@@H]2Cn3c(cccc3=O)[C@H]1N2C(=O)C1CCCC1	8.0	6.6
COc1ccc(NC(=O)Nc2ccc3c(c2)CC(=O)N([C@H](C)CO)C[C@@H](C)[C@H](CN(C)S(=O)(=O)c2ccc(F)cc2)O3)cc1	5.6	4.9

New compounds follow:
SMILES	Vaccinia stage	Vaccinia stage Venus
C[C@H](CO)N1C[C@H](C)[C@H](CN(C)Cc2ccc(F)cc2)Oc2ncc(C#Cc3cccnc3)cc2C1=O	-11.4	-8.8
C[C@H](CO)N1C[C@H](C)[C@H](CN(C)Cc2ccc(Oc3ccccc3)cc2)Oc2c(NC(=O)CCCCCC(=O)Nc3ccccc3N)cccc2C1=O	?	nt
COc1ccccc1C#Cc1ccc([C@H]2[C@H]3CN(C(=O)C4CC4)CCCCN3[C@H]2CO)cc1	?	nt
CS(=O)(=O)N1[C@H](C#N)[C@H](c2ccccc2-c2ccc(F)cc2)[C@H]1CO	-22.6	-13.5
O=C(Nc1ccccc1)N[C@H]1CC[C@H](CCNS(=O)(=O)c2cccc(F)c2)O[C@@H]1CO	6.2	9.8
C[C@@H]1CN([C@@H](C)CO)C(=O)c2cc(Br)cnc2O[C@H]1CN(C)C(=O)C1CC1	30.2	17.5
CC=Cc1ccc2n(c1=O)C[C@H]1[C@H](CO)[C@@H](C(=O)NCCC)N(Cc3cocn3)[C@@H]21 (mixture of isomers)	10.7	11.1
CNC(=O)C[C@@H]1CC[C@@H]2[C@@H](COc3ccc(NC(=O)Nc4ccc(Cl)cc4)cc3C(=O)N2C)O1	0.6	3.3
OC[C@@H]1[C@H](c2ccc(-c3cccc(F)c3)cc2)[C@@H]2CN(CCC(F)(F)F)CCCCN12	?	nt
O=C(C[C@H]1C=C[C@H](NC(=O)c2ccc3c(c2)OCO3)[C@H](CO)O1)NCc1ccc(F)cc1	-8.4	-5.5
CCC(=O)N1[C@@H](CO)[C@H](c2ccccc2)C12CN(C(=O)NC1CCCC1)C2	-3.2	-2.7
C[C@H](CO)N1C[C@H](C)[C@@H](CN(C)C(=O)c2cnccn2)Oc2ncc(/C=C/c3ccccc3)cc2C1=O	12.4	3.3
CC(C)CC#Cc1cnc2c(c1)C(=O)N([C@H](C)CO)C[C@@H](C)[C@@H](CN(C)Cc1ccc(F)cc1)O2	-32.2	-28.9
COc1cccc(-c2ccc3c(c2)O[C@@H](CN(C)C(=O)c2ccccc2F)[C@@H](C)CN([C@H](C)CO)S3(=O)=O)c1	?	nt
O=C(C[C@@H]1CC[C@@H]2[C@H](COC[C@@H](O)CN2Cc2ccc(Oc3ccccc3)cc2)O1)N1CCN(c2ccccc2)CC1	?	nt
O=C(C[C@H]1C=C[C@H](NC(=O)Nc2ccccc2F)[C@H](CO)O1)NCc1ccc(F)cc1	2.6	-7.4
CCC(=O)N1C[C@@H](C)[C@@H](OC)CN(C)C(=O)c2cc(NS(C)(=O)=O)ccc2OC[C@@H]1C	11.6	3.1
CO[C@H]1CN(C)C(=O)c2ccc(NC(=O)C3CCCC3)cc2OC[C@H](C)N(CCC(F)(F)F)C[C@@H]1C	-3.9	5.6
CNC[C@@H]1Oc2cc(C#C[C@H](C)O)ccc2S(=O)(=O)N([C@@H](C)CO)C[C@H]1C	-7.6	-4.8
C[C@@H]1CN([C@@H](C)CO)C(=O)c2cc(C#CCC3CCCC3)cnc2O[C@@H]1CN(C)C(=O)c1cnccn1	-3.7	-1.9
C[C@H](CO)N1C[C@H](C)[C@@H](CN(C)S(=O)(=O)c2cn(C)cn2)Oc2ccc(NC(=O)Cc3cn(C)c4ccccc34)cc2C1=O	12.1	8.4
COc1ccc(S(=O)(=O)N(C)C[C@@H]2Oc3c(NC(=O)c4ccc(-c5nccs5)cc4)cccc3C(=O)N([C@H](C)CO)C[C@@H]2C)cc1	-24.9	-8.9
COc1ccccc1C#Cc1ccc([C@H]2[C@@H](CO)N3CCCCN(C(=O)C4CCC4)C[C@@H]23)cc1	?	nt
CCOC(=O)C1=CC[C@@H](c2ccc3ccccc3n2)[C@@H]1C(=O)c1ccccc1	4.7	5.1
N#Cc1cccc(-c2ccc([C@H]3[C@H](CO)N4CCCCN(C(=O)Nc5ccccc5)C[C@@H]34)cc2)c1	?	nt

One compound at a time (already shown). Order of screens: Vaccinia stage | Vaccinia stage Venus
CCOC(=O)C1=CC[C@@H](c2ccc3ccccc3n2)[C@@H]1C(=O)c1ccccc1 reads 4.7 | 5.1
COc1ccc(S(=O)(=O)N(C)C[C@@H]2Oc3c(NC(=O)c4ccc(-c5nccs5)cc4)cccc3C(=O)N([C@H](C)CO)C[C@@H]2C)cc1 reads -24.9 | -8.9
